# High-throughput results from PubChem BioAssay.
# TRPML1 inh: blocks the human TRPML1 channel | Q9GZU1 | TRPML1-inducible cells, Ca2+ dye fluorescence, FDSS; active compounds read low; inhibition of EC80 agonist-evoked calcium signal | activity change, negative = inhibition, % (no concentration beside the values) | 0.02% of 390,000 active; in the data active means activity change below about -50%; inconclusive means about -30% to -50%; inactive means above about -30%;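 note: stimulus is agonist 54-4 at its EC80 concentration; % is set by controls: 0 for no effect and ±100 for the full control effect; compound concentration not given in the record; the text of the record puts the active cut at -80%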
# Target sequence (Q9GZU1 whole entry, looked up): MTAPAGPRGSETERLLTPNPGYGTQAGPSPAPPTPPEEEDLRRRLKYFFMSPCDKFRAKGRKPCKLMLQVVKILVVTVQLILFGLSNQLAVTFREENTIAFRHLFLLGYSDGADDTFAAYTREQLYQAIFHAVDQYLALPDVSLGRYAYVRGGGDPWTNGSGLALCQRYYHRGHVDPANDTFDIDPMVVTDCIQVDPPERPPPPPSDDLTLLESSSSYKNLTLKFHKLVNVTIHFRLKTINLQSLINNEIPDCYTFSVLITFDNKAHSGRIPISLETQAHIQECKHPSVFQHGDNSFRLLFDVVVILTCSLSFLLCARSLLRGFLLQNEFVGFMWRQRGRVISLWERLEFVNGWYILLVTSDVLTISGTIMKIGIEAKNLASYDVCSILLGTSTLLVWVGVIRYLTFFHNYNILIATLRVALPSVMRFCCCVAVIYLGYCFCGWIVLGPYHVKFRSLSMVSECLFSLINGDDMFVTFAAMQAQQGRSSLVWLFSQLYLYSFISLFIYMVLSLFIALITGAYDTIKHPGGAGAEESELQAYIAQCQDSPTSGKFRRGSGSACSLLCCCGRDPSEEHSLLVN
#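 Tet-induced TRPML1-DL cells loaded with Ca8 no-wash calcium dye were read kinetically on FDSS. Compound addition was followed by EC80 agonist 54-4 (4 uM final); inhibition was read over 110 s.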
# gsp agonist: activates gsp, the McCune-Albright syndrome mutation. gsp mutant cells, cAMP HTRF, 30 min; control for the full effect not named in the record. Potency, µM (top dose mostly 76.9 µM), without a hit: at the highest dose activation (cAMP increase), most hits filed as activators. 0.13% of 340,000 active; active = well fitted activation curve with a large enough effect; inconclusive = small, poorly fitted or top-dose-only effect, or another doubt; inactive = no such curve, though single readings can be large or run the other way; cell line not stated here;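 note: phosphodiesterase inhibitor Ro 20-1724 added with compounds to block cAMP breakdown; potency is the fitted concentration of half-maximal effect; nearly all actives have a fitted effect of over 60% in size; about a fifth of the inactives were tested at one dose only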
#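 Cells in DMEM/10% FBS with G418 were pretreated with compounds in DMSO plus […] (300 uM stock) for 30 min at 37C. cAMP was measured by HTRF (cAMP-d2 plus anti-cAMP antibody-K) after 30 min at room temperature.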
# ClpP mod: qHTS Assay for Activators of ClpP | ATP-dependent Clp protease proteolytic subunit (Bacillus subtilis (strain 168)), P80244 | purified B. subtilis ClpP, FRET peptide cleavage, 20 min | Potency, µM (top dose mostly 57.5 µM), for the others: top-dose activity change, negative = active | 1.9% of 340,000 active; active = well fitted falling curve with a large enough effect; inconclusive = small, poorly fitted or top-dose-only effect; inactive = no such curve, though single readings can be large or run the other way; note: potency is the fitted concentration of half-maximal effect; the source files actives as falling curves though it sought activators and does not explain the sign; nearly all actives have a fitted effect of over 65% in size; many hits overshoot -100%
# Target sequence (P80244 whole entry, looked up): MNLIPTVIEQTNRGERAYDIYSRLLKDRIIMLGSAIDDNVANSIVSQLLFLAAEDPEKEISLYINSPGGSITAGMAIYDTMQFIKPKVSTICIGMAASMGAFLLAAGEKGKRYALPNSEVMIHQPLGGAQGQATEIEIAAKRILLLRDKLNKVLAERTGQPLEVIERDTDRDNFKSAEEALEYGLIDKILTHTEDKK
#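 FRET quenching reversal measured ClpP activation: 10 microg/mL B. subtilis ClpP at pH 8 with the FRET-FV decapeptide, read at 430 nm after 320 nm excitation. The 20-min minus 0-min signal was scaled between DMSO/no-enzyme wells and ADEP (5.8 microM final).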
# gsp antagonist: antagonists of gsp mutant (McCune-Albright syndrome); Potency, µM (doses to about 76.9 µM), without a hit: top-dose activity change, negative = inhibition, most hits filed as inhibitors; gsp-mutant cells, cAMP HTRF, 30 min; control for the full effect not named in the record; 0.4% of 340,000 active; active = falling curve of any shape with a large fitted effect; inconclusive = falling curve, mostly with a smaller effect; inactive = flat or rising curve; cell line not stated here;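 note: intracellular cAMP measured with PDE inhibitor Ro 20-1724 present during compound exposure; potency is the fitted concentration of half-maximal effect; % is set by controls: 0 for no effect and ±100 for the full control effect; nearly all actives have a fitted effect of over 65% in size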
#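 HTRF cAMP measurement after 30 min RT detection following 30 min, 37C compound treatment alongside […] (added as 300 uM solution) in G418-selected cells seeded at 2000/well and grown 16–24 h.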
# Menin-MLL FL inh: menin-MLL binding inhibition, fluorescein peptide; Fluorescence polarization, fluorescein-MLL peptide displacement from menin; FP activity change, % at 61.4 µM; 290,000 tested, under 10 active; inconclusive = falling polarisation curve, or a change in total fluorescence; inactive = total fluorescence flat and polarisation flat or rising; no compound was filed as active; the % refers to the polarisation; negative = inhibition;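 note: % of control where 0% means no effect; inhibitors lower the polarisation; unlabelled MLL peptide was the positive control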
# TRPML1 agonist: activates the human TRPML1 channel; AID 624414; TRPML1-expressing cells, Ca2+ dye fluorescence, FDSS; host cell line not named in the record; reference of the full effect not given here; Q9GZU1; activation, % (no concentration beside the values); 0.12% of 410,000 active; in the data active = activation above about 50%; inconclusive = about 30% to 50%; inactive = below about 30%; note: 0% is about no effect; the text of the record puts the active cut at 80%
#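 Kinetic FDSS Ca2+ read in Tet-induced TRPML1-DL cells (ABD Ca8 dye plus quencher, 45-90 min RT loading): baseline, then compound, then 110 s agonist window; EC80 agonist 54-4 at 4uM final added afterwards for a 110 s antagonist window.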
# Active calls of the source: *; ? = inconclusive; nt = not tested or not shown; & = joins results of further samples; [ ] = another dose, or the depositor's remark.
SMILES	TRPML1 inh	gsp agonist	ClpP mod	gsp antagonist	Menin-MLL FL inh	TRPML1 agonist
C=CCn1c(Br)nc2c1c(=O)[nH]c(=O)n2C	-10	-41%[inhibitor]	2.2%	2%	3.4	0.2
Cc1ccc(CNC(=O)c2ccc3c(c2)NC(=O)C(CS(=O)(=O)Cc2cccc(C)c2)N3)cc1 (configuration not stated)	-8	nt	?	nt	nt	-0.9
COc1ccc(-c2cc(C(=O)Nc3cccnc3)c3ccccc3n2)cc1OC	-6	-3%[15.4 µM]	-2.9%	-11%	nt	-0.5
Cc1ccc(OCC(=O)Nc2ccc(S(=O)(=O)Nc3cc(C)nc(C)n3)cc2)c(C)c1	-7	1%[15.4 µM]	nt	-14%	nt	1.0
Cc1cc(C)c(S(=O)(=O)N(CC(=O)O)CC(=O)O)c(C)c1	7	24%	-0.3%	0%	2.6	-0.3
CCOc1ccc(C(CCc2ccccc2)NC(=O)c2ccccc2)cc1OCC (configuration not stated)	2	-70%	-0.6%	11%	1.4	3.6
Cc1ccc(S(=O)(=O)/N=S(/C)c2ccccc2)cc1 (configuration not stated)	8	19%	-4.8%	7%	-1.7	-0.5
COc1ccc(C(=O)CC(CC(=O)c2ccc(OC)cc2)C(=O)O)cc1	-1	nt	0.6%	-4%	nt	-0.3
Cc1ccc(CNC(=O)CCC(=O)N2CC(C)Sc3ccccc32)cc1 (configuration not stated)	2&-10	-1%	-0.6%&-1.2%	-1%	0.7	1.6&1.8
COc1ccc(/C=C(/CC(=O)Nc2ccccc2)c2nc3ccccc3s2)cc1	18	-10%	nt	-11%	-0.9	1.7
CCCCC(CC)C(=O)NCCCN1CCN(CCCNC(=O)C(CC)CCCC)CC1 (configuration not stated)	3	-26%	0.7%	5%	-0.7	0.0
O=C(O)c1ccc(N/N=C/c2ccc(C(F)(F)F)cc2)cc1	-2	20%[15.4 µM]	nt	0%	-0.6	0.5
COC(=O)c1ccc(NC(=O)COC(=O)c2cccc3c(=O)c(C)c(-c4ccccc4)oc23)cc1	0	2%[15.4 µM]	nt	0%	-0.6	0.6
N/C(CSc1ncccc1C(F)(F)F)=N\O	-2	11%[15.4 µM]	0.3%	-7%	1.1	0.3
COc1ccc(CCn2c(=N)c(C(=O)NCc3ccco3)cc3c(=O)n4cccc(C)c4nc32)cc1	9	7%	-19%	-12%	8.2	-1.6
CC(C)C(=O)Nc1c(-c2ccc(Cl)cc2)c(=O)c2ccccc2n1C	-6	8%	-19%	-5%	1.7	1.7
CCN(Cc1nc2cc(Cl)ccc2c(=O)[nH]1)C(=O)c1ccc(C)c(NC(=O)c2ccco2)c1	11	-31%[inhibitor]	0.4%	-4%	nt	1.9
O=C(Cn1nc(C(=O)O)c2ccccc2c1=O)Nc1cc(S(=O)(=O)N2CCCCC2)ccc1Cl	14	27%	-2.4%	-8%	nt	2.9
O=S(=O)(Nc1ccc2c(c1)OCO2)c1ccccc1	-6	22%	-4.2%	2%	2.4	0.0
O=C(Nc1ccc(F)cc1)NC1CCN(Cc2nnnn2Cc2ccco2)CC1	-1	11%	1.1%	-6%	0.1	-0.6
Cc1cc(C(=O)Nc2ccc(N3CCCC3)c(Cl)c2)ccc1[N+](=O)[O-]	14	40%	nt	-7%	1.9	-0.9
O=C(c1ccccc1)c1ccc(C(=O)N2CCN(c3ccccc3)CC2)cc1	7	?	0.0%	-3%	nt	1.9
CC(C)c1ccc(NC(=O)COC(=O)[C@@H]2CCCN2C(=O)c2cccs2)cc1	-8	?	1.1%	-10%	nt	1.2
O=C(COc1ccccc1Cl)N(Cc1ccco1)C1CCS(=O)(=O)C1 (configuration not stated)	-7	-24%	0.1%	-5%	0.8	0.2
Cc1ccc(SC(CC(=O)c2ccc(C)cc2)C(=O)O)cc1 (configuration not stated)	-10	0%	-11%	-12%	10	0.1
COc1ccc2cc3cc(C(=O)N4CCCC(C)C4)oc3nc2c1 (configuration not stated)	-1	24%	?	8%	2.9	0.9
O=C(CSc1nnc(-c2ccccc2)c(-c2ccccc2)n1)N1CCOCC1	2	-15%	1.4%	-6%	3.4	-0.8
CCOc1ccc(C(=O)Nc2ccc(NC(=O)c3ccco3)c(Cl)c2)cc1Cl	-9	5%	-29%	6%	0.1	0.7
O=C(NCC(=O)N(c1ccccc1)C(C(=O)NCC1CCCO1)c1ccccc1)c1cccs1 (configuration not stated)	-2	-11%	nt	-3%	0.2	0.9
CCN(CC)CCN1C(=O)C(=O)/C(=C(/O)c2cnn(-c3ccccc3)c2C)C1c1ccc(C)o1 (configuration not stated)	5	?	-0.3%	-5%	-2.7	-0.7
Cc1nnc(NC(=O)c2ccc(S(=O)(=O)N3CC(C)OC(C)C3)cc2)o1 (configuration not stated)	23	-27%	-1.1%	9%	-0.5	-0.1
CCc1c(C)[nH]n(-c2nc(-c3cccc([N+](=O)[O-])c3)cs2)c1=O	44	-23%	-20%	-14%	-0.8	-1.7
Cc1c(S(=O)(=O)N2CCN(c3ccc(F)cc3)CC2)c(=O)n(C)c(=O)n1C	8	-20%	-2.4%	7%	nt	0.1
C/C(=N\N1CCN(Cc2ccccc2Cl)CC1)c1ccc(F)cc1	-15	14%	nt	0%	0.3	0.6
CCN1CCN(Cc2ccc(NC(=O)c3ccc(C)c(/C=C/c4cnc(Nc5cc(N6CCNCC6)nc(C)n5)cn4)c3)cc2C(F)(F)F)CC1	12	44%&-9%	4.4%&4.5%	11%	?	-0.4
N#Cc1ccc(/C=C2\CCCCn3c2nc2cc(C(=O)O)ccc2c3=O)cc1	-3	23%	nt	-6%	-0.1	0.3
COc1cnc(-c2ccccn2)nc1Sc1ccccc1Cl	-12	-36%[inhibitor]	-1.6%	-2%	1.1	-0.9
O=S1(=O)C=C(SCCN2CCCC2)c2ccccc21	20	-34%	-0.8%	-5%	0.0	-1.0
Cc1ccc(NC(=O)C2CCN(c3nn4cc(-c5ccc(C)cc5)nc4s3)CC2)cc1	-21	nt	-0.2%	nt	nt	1.2
COc1ccc2oc(=O)c(C(=O)Nc3ccccc3O)cc2c1	1	-4%	-1.0%	-4%	0.0	-0.4
C/C(=N\Nc1nccnc1Cl)c1ccc(O)c(C)c1	3	-66%[inhibitor]	nt	-2%	-9.0	0.7
Cc1cc(NC(=O)C(C)SCC(=O)NCc2ccc(F)cc2)no1 (configuration not stated)	12	1%	-4.9%	-14%	nt	0.9
Cc1ccc2c(c1)C(=O)OC(C(=O)Nc1ncc(Cc3ccc(C(C)C)cc3)s1)C2 (configuration not stated)	5	nt	0.1%	nt	nt	1.4
O=c1c2cc([N+](=O)[O-])ccc2nc(CN2CCN(c3ccccn3)CC2)n1-c1ccccc1F	6	28%[15.4 µM]	nt	-23%	-0.2	-0.1
Cc1cc(C)c(NC(=O)c2ccccc2C(=O)c2ccccc2)c(C)c1	2	?	nt	-5%	-1.7	1.1
O=C1NCCNC1c1ccccc1 (configuration not stated)	-20	-22%	-3.1%	1%	nt	-0.1
CCOc1ccccc1-c1cc(C(=O)N/N=C/c2ccc(O)c(OC)c2)c2ccccc2n1	9	4%	1.6%	-1%	4.8	0.5
Cc1cccc(CN2CCC(C(=O)Nc3cccc(-c4cscn4)c3)CC2)n1	-2	?	-0.2%	-5%	nt	0.0
COc1cc(/C=C2\SC(=S)N(CCC(=O)Nc3ccc(O)cc3)C2=O)cc(OC)c1OC	-8	-11%	nt	-8%	0.3	-0.5
Cc1nc(SCC(=O)NCC2CCCO2)c2cc(-c3ccccc3)sc2n1 (configuration not stated)	-4	11%	-11%	-10%	nt	0.3
COc1cc(CN2CCCC(C(=O)Nc3ccccc3Oc3cccnc3)C2)ccc1F (configuration not stated)	-5	29%	-0.7%	-3%	-4.6	-0.1
O=C(/C=C\Nc1ccccc1Br)c1ccc2c(c1)OCO2	23	13%[15.4 µM]	nt	-46%	8.4	-0.5
Cc1ccccc1-n1c(C)nnc1SC(C)C(=O)NCC1CCCO1 (configuration not stated)	-11	-37%[inhibitor]	2.0%	23%	nt	-0.4
CN(C)S(=O)(=O)c1ccc(NC(=O)CN2CCCC2c2ccc3c(c2)OCCCO3)cc1 (configuration not stated)	-20	3%	-3.4%	-2%	nt	0.7
Cn1c(SCC(=O)N2c3ccccc3CCc3ccccc32)nnc1-c1cc2ccccc2cc1O	-14	22%	-13%	-11%	-1.5	0.6
O=C(NC(NC(=O)c1ccccc1)c1ccccc1)c1ccccc1	-3	0%	-0.8%	-1%	-1.0	0.0
C=CCNC(=O)CN(c1ccc(F)c(Cl)c1)S(C)(=O)=O	-5	?	-0.4%	3%	-1.3	0.4
CC(C)NC(=O)c1onc(CSc2cccc(F)c2)c1C(=O)O	-12	nt	1.6%	-1%	4.5	-0.4
CCCN1C2CCCC1CC(NC(=O)c1cc(OC)cc(OC)c1)C2 (configuration not stated)	1	-39%	-11%	9%	-2.8	-0.7
Cc1cccc(C)c1N1C(=O)C2ON(c3ccccc3)C(c3ccncc3)C2C1=O (configuration not stated)	-2	7%	0.9%	-4%	0.7	0.7

# Later entries
SMILES	TRPML1 inh	gsp agonist	ClpP mod	gsp antagonist	Menin-MLL FL inh	TRPML1 agonist
COc1cccc(CC(=O)N[C@@H](CCSC)c2nc3ccccc3[nH]2)c1	0	18%[15.4 µM]	-2.7%	3%	3.0	0.5
COc1ccc(OC)c(C(O)c2coc3ccc(O)c(CN(C)C)c23)c1 (configuration not stated)	17	-2%	-0.4%	18%	0.8	-0.3
CC(=O)N1CCN(CC(=O)Nc2cc(S(=O)(=O)N3CCOCC3)ccc2C)CC1	-2	-1%[15.4 µM]	nt	5%	1.9	0.6
CCN(CC)S(=O)(=O)c1ccc(N2CCN(C)CC2)c(NC(=O)CSCC(=O)Nc2cccc(C)c2)c1	20	-14%[15.4 µM]	-14%	-1%	nt	0.2
O=C(CSc1ncc(-c2ccccc2)[nH]1)Nc1cccc(C(F)(F)F)c1	11	nt	-5.2%	nt	nt	3.3
C[C@H](CO)N1C[C@H](C)[C@@H](CN(C)C(=O)NC2CCCCC2)Oc2ccc(NC(=O)Nc3ccccc3)cc2C1=O	-11	nt	0.3%	-1%	nt	-0.3
COc1ccc(-c2cc(C(=O)Oc3ccc(C#N)cc3)no2)cc1	-12	nt	-21%	nt	nt	1.5
O=C(C1CC1)N1CCN=C1SCc1ccccc1Cl	-1	-40%[inhibitor]	-5.0%	-1%	-0.7	-0.3
